# Compound activity (PubChem)
# NS1 function inh: influenza NS1 inhibition. Potency, µM (titrated, usually from 46.1 µM), inactives show top-dose activity, positive = more growth. hit rate 0.4% among 270,000. S. cerevisiae slowed by influenza A NS1, growth recovery by OD600; also: actives are rising curves; nearly all actives have a fitted effect of over 50% in size
#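 Growth recovery, yeast-based: influenza A NS1 expressed in S. cerevisiae causes slow growth, and suppressors are detected by OD600. The parent strain without NS1 is used as positive control.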
# Lassa entry inh: blocks Lassa virus binding to or entry into cells | hit rate 1.2% among 300,000 | AID 540256 | Lassa virus pseudotype entry inhibition, cell reporter; control for the full effect not named in the record | Potency, µM (titrated, usually from 37.9 µM), for the others: at the highest dose activity change, negative = inhibition, actives largely listed as inhibitors; active means well fitted inhibition curve with a large enough effect; inconclusive means small, poorly fitted or top-dose-only effect, or effect the other way; inactive means flat fitted curve, though single readings scatter; tested in HEK293 cells; also: % is scaled to controls: 0 for no effect and ±100 for the full control effect; nearly all actives have a fitted effect of over 50% in size; luciferase read-out
# Cruzain Triton: inhibitors of Trypanosoma cruzi cruzain with detergent | P25779 | purified cruzain, Z-FR-AMC fluorescence, 0.01% Triton | Potency, µM, for inactives: max response, negative = inhibition, most hits filed as inhibitors | hit rate 0.43% among 200,000; active = well fitted curve in the direction sought with a large enough effect; inconclusive = small, poorly fitted or top-dose-only effect, or another doubt; inactive = no such curve, though single readings can be large; an effect the other way counts as inactive or inconclusive;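 also: plate controls were neutral wells for no effect and buffer without enzyme for full effect; nearly all actives have a fitted effect of over 40% in size; top concentration of the series not given in the record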
# Target sequence (P25779 123-467 limits assumed): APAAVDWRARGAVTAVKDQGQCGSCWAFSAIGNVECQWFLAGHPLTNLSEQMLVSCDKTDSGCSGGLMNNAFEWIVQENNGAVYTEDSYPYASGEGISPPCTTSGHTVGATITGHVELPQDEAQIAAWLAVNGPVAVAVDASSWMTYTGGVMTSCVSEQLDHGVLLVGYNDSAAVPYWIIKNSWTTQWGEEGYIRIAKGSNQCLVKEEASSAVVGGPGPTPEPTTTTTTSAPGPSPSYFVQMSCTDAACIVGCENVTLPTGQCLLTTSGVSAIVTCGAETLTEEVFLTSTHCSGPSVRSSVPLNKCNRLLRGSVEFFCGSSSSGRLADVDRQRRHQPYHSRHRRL
#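 Read-out: AMC fluorescence (360 nm excitation, 450 nm emission), four reads over 2 min, first-to-third difference used. Conditions: cruzain 1.5 nM, Z-FR-AMC 2 uM, pH 5.5 acetate, 5 mM DTT, 0.01% Triton X-100.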
# StopGo reporter: lowers the luciferase signal of an FMDV 2A StopGo reporter; human cells with a luciferase reporter of 2A StopGo recoding; control for the full effect not named in the record; Potency, µM (highest dose often 57.9 µM), for inactives: at the top dose signal change, negative = less light; hit rate 1.2% among 410,000; AID 1159524; active = well fitted falling curve with a large enough effect; inconclusive = small, poorly fitted or top-dose-only effect; inactive = no such curve, though single readings can be large or run the other way; tested in HEK293T cells; also: % is scaled to controls: 0 for no effect and ±100 for the full control effect; nearly all actives have a fitted effect of over 45% in size; luciferase light after 4 h
# Marburg entry inh: inhibitors of Marburg virus binding or cell entry | Potency, µM (highest dose often 37.8 µM), for inactives: at the top dose activity change, negative = inhibition, actives largely listed as inhibitors | hit rate 1.8% among 300,000 | Marburg virus pseudotyped entry inhibition, cell reporter; control for the full effect not named in the record; about a third of the inactives were read at about 46 µM; active = well fitted inhibition curve with a large enough effect; inconclusive = small, poorly fitted or top-dose-only effect, or effect the other way; inactive = flat fitted curve, though single readings scatter; tested in HEK293 cells; about a fifth of its hits are not listed in these tables; also: % is scaled to controls: 0 for no effect and ±100 for the full control effect; luciferase read-out
# SARS PLpro yeast: inhibitors of SARS-CoV papain-like protease in yeast; S. cerevisiae expressing SARS-CoV PLpro, growth rescue; control for the full effect not named in the record; Potency, µM (doses to about 32.9 µM), for the others: at the highest dose activity, positive = growth rescue; hit rate 0.19% among 330,000; also: 0% is about no effect; nearly all actives have a fitted effect of over 55% in size; growth read by luminescence after 48 h
# RE007 growth inh: less growth of the S. pombe RE007 Vpr strain | S. pombe RE007 Vpr strain, BacTiter-Glo ATP luminescence, 24 h; control for the full effect not named in the record | Potency, µM (titrated, usually from 92.2 µM), without a hit: at the top dose activity change, negative = less growth | hit rate 0.21% among 360,000 | AID 651644; active = well fitted falling curve with a large enough effect; inconclusive = small, poorly fitted or top-dose-only effect; inactive = no such curve, though single readings can be large or run the other way;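 also: % is scaled to controls: 0 for no effect and ±100 for the full control effect; nearly all actives have a fitted effect of over 50% in size; the assay follows cell death caused by Vpr and the record does not say whether a fall means rescue or toxicity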
#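 Fission yeast RE007 carrying one integrated HIV-1 vpr copy, seeded at OD 0.01 in PMG+AL medium with 23 nL pinned compound. Grown 24 h at 30 degrees; viability read by BacTiter-Glo luminescence after 5 min.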
# Cruzain inh noDet: blocks cruzain activity in detergent-free assay | P25779 | purified cruzain, Z-FR-AMC fluorescence, no detergent | Potency, µM, for the others: max response, negative = inhibition, hits mostly inhibitors | hit rate 2.3% among 200,000 | AID 1476; active = well fitted curve in the direction sought with a large enough effect; inconclusive = small, poorly fitted or top-dose-only effect, or another doubt; inactive = no such curve, though single readings can be large; an effect the other way counts as inactive or inconclusive;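 also: plate controls were enzyme without inhibitor for no effect and buffer without enzyme for full effect; nearly all actives have a fitted effect of over 40% in size; top concentration of the series not given in the record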
#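 Detergent-free condition (0.00005% Triton X-100) in acetate buffer pH 5.5 with DTT. 1.5 nM enzyme and compound were pre-mixed 15 min, then 2 uM Z-FR-AMC substrate added; reaction progress from fluorescence change between first and third reads (60 s).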
# Active calls of the source: *; ? = inconclusive; / = no result given; & = joins results of further samples; [ ] = dose if it differs, or a comment. Unless noted, calls follow the shape of the dose curve; as a rule, active means well fitted rising curve with a large enough effect; inconclusive means small, poorly fitted or top-dose-only effect; inactive means no such curve, though single readings can be large or run the other way. Potency is read from the fitted curve at half-maximal effect. No enrichment for hits; about 4.5% have a hit in one of these screens.
SMILES,NS1 function inh,Lassa entry inh,Cruzain Triton,StopGo reporter,Marburg entry inh,SARS PLpro yeast,RE007 growth inh,Cruzain inh noDet
CCc1nc(NCCO)c(C#N)c2c1CSC(C)(C)C2,10%,/,/,?,/,-1%,4%,/
COc1ccccc1NC(=O)Nc1nnc(Cc2ccccc2F)s1,3%,/,/,-8%,/,1%,-1%,/
COc1ccc(/C=C/C(=O)NCC2COc3ccccc3O2)c(OC)c1 (stereo not given),14%,14%,/,49%[activator],12%[46.1 µM],-9%,-7%,/
Cc1cc(C)cc(N(CC(=O)NC2CCCCCC2)S(=O)(=O)c2c(C)[nH]c(=O)[nH]c2=O)c1,-2%,/,/,-24%,/,-2%,-1%&-2%,/
COCCN(C(=O)CSc1ncn[nH]1)c1c(N)n(Cc2ccccc2)c(=O)[nH]c1=O,/,?,/,-24%,-2%,15%,-22%,/
OCC[C@@H]1C[C@H](O)[C@@H](O)[C@]2(Cc3ccccc3CCO2)O1,1%,/,/,-6%,/,4%,4%,/
C=CCOc1c(Br)cc(CNn2c(C)n[nH]c2=S)cc1OC,27%,2%,/,-28%,-5%,3%,3%,/
O=C(CSC1=NCCS1)Nc1ccc(F)cc1,3%,-8%[46.1 µM],/,-23%,?,-1%,-4%,/
Cc1ccccc1OCC(=O)OCC(=O)c1ccc(OC(=O)c2ccccc2)cc1,-2%,-31%[14.3 µM],0.2%,18%,10%,-1%,-7%,-15%
O=C(O)C1CCCCC1C(=O)Nc1ccc(S(=O)(=O)N2CCOCC2)cc1 (stereo not given),/,?,/,14%,-19%[46.1 µM],/,-6%,/
CCN(CC(=O)Nc1ccccc1C(F)(F)F)C(=O)c1ccc(N2C(=O)CCC2=O)cc1,-1%,4%,/,-14%,0%,1%,-1%,/
Cc1ccc(-n2c(O)c(C=Nc3ccccc3N)c(=O)[nH]c2=O)cc1C,-4%,?,-2.9%,-19%,?,-3%,-13%,-7%
O=C1NC(=S)N/C1=C\C=C\c1ccccc1,-38%,/,/,40%[activator],/,-6%,6%,/
N#Cc1c2c(c(NCCCN3CCOCC3)n3c1nc1ccccc13)CCC2,-1%,-15%,1.5%,-10%,?,-13%,-9%,5%
Cc1ccc2c(c1)N(CCC(=O)NCc1ccccn1)C(=O)CO2,-2%,7%,3.3%,5%,-1%,1%,1%,5%
CC(C)C(C)NC(=O)CN1C(=O)NC2(CCc3ccccc32)C1=O (stereo not given),2%,?,/,14%,4%[46.1 µM],1%,10%,/
CC(=O)Nc1nc2c(ncn2COCCOC(C)=O)c(=O)[nH]1,9%,/,9.4%,/,-3%,0%,/,-18%
Cc1ccc(S(=O)(=O)N2CCN(C(=O)Cn3nc(C(=O)O)c4ccccc4c3=O)CC2)cc1,3%,/,/,-10%,/,0%,-12%,/
COc1ccc(NCN2C(=O)CCC2=O)cc1,-10%,2%,1.8%,5%,-3%,?,-12%,-2%
CC(C)(C)c1ccc(C(=O)Nc2c3c(nn2C(C)(C)C)CS(=O)(=O)C3)cc1,1%,-26%[46.1 µM],/,-22%,?,0%,-6%,/
COc1cc2nc(CN3CCN(C(C)=O)CC3)[nH]c(=O)c2cc1OC,/,7%,/,9%,2%[46.1 µM],0%,-15%,/
COc1ccc(NC(=O)Cn2c(C)c3cnn(-c4ccccc4)c(=O)c3c2C)c(OC)c1,/,15%[46.1 µM],-4.8%,0%,-4%[46.1 µM],/,/,25%
Cc1ccc2c(c1)N(C(=O)CCC(=O)NCCCN1CCOCC1)CC(C)O2 (stereo not given),2%,/,/,-20%,/,0%,-10%,/
COC(=O)c1ccc(C23CC4(C2)[C@H](CN(Cc2ccc(C(F)(F)F)cc2)[C@@H]4c2ccccc2)C3c2ccc(C(F)(F)F)cc2)cc1 (stereo not given in full),20%,/,0.5%,/,/,-3%,/,-13%
CCOC(=O)c1cc(-c2ccccc2)nc2nc(N3CCCCC3)sc12,2%,-12%,-6.8%,-3%,15%,9%,1%,?
COc1ccc(CNC(=O)c2cc3c(=O)[nH]c4ccc(C)cc4c3s2)c(OC)c1,/,/,-2.1%,-1%,-19%[46.1 µM],/,/,9%
CCOC(=O)N1CCC(NC(=O)c2cc(-c3ccc(F)cc3)[nH]c2C)CC1,-14%,-14%,0.3%,?,?,-7%,11%,9%
CC(OC(=O)c1cccc(-n2cnnn2)c1)C(=O)Nc1ccc(N(C)C)cc1 (stereo not given),/,4%,/,10%,12%,1%,14%,/
CCCCOc1ccccc1Cn1c(=O)oc2ccc(C)cc21,-52%,8%,-2.4%,-26%,16%&16%,-5%,-1%,-7%
Cc1ccc(C2CC(c3ccccc3)=NN2C(=S)Nc2ccccc2)o1 (stereo not given),22%,4µM*,-5.1%,-16%,?,-33%,-21%,?
CN(C)c1cccc(C(=O)NCCCn2ccc3ccccc32)c1,-3%,?,/,16%,?,-9%,-6%,/
O=C(Nc1ccccc1)OCCN1CCOCC1,/,-1%,/,-3%,-19%,/,-8%,/
Cc1cc(=O)oc2cc(NS(=O)(=O)c3ccccc3)ccc12,1%,-2%,/,23%,3%[46.1 µM],1%,5%,/
CS(=O)(=O)N(CC(=O)N1CCCCCC1)c1cc(Cl)ccc1Cl,-7%,/,/,0%,/,-2%,-7%,/
COc1ccc(CCn2nc(C)c([N+](=O)[O-])c2C)cc1,5%,-16%[46.1 µM],/,10%,-3%[46.1 µM],?,-7%,/
Cc1ccsc1-c1n[nH]c(=S)n1C1CCCCC1,4%,3%,-2.5%,-24%,-6%,24%,2%,1%
CC1(C)CC(=O)C(CC2C(=O)CC(C)(C)CC2=O)C(=O)C1,4%,12%,/,-12%,-2%[46.1 µM],0%,1%,/
COc1ccc(CCNC(=O)CN(c2cc(C(F)(F)F)ccc2Cl)S(C)(=O)=O)cc1,/,-26%[46.1 µM],-4.0%,10%,-16%[46.1 µM],/,/,-6%
COc1cccc(-c2nc(C#N)c(N3CCN(C(=O)c4ccco4)CC3)o2)c1,1%,-26%,/,-11%,-1%,1%,3%,/
COc1ccc(Cc2noc(COc3ccc(Cl)cc3)n2)cc1,-47%,-5%,-4.4%,/,4%,-15%,-17%,8%
COC(=O)c1ccc(NC(=O)CCc2c(C)nn(-c3ccc(N4CCOCC4)nn3)c2C)cc1,/,1%[46.1 µM],-2.3%,11%,/,/,/,-2%
CC1CCN(C(=O)C(NS(=O)(=O)c2cccc3nsnc23)C(C)C)CC1 (stereo not given),13%,/,/,-2%,/,-2%,3%,/
COC(=O)c1cc(=O)n(Cc2ccco2)c(=Nc2ccc(F)cc2)s1,-4%,/,/,28µM*,/,-1%,7%,/
Cc1cc2ccccc2c(=O)n1CC(=O)NCc1ccco1,-6%,15%,-2.0%,9%,12%,4%,18%,-3%
CN(C)C(=O)CCc1ccc2c3c([nH]c2c1)[C@]1(CCc2ccccc2)[C@@H](C(=O)N2CCCCC2)C[C@H](CC(=O)NCCc2ccccn2)C(=O)N1CC3,/,/,/,88%[activator],8%,5%,3%,/
COc1ccccc1S(=O)(=O)Cc1ccc(C(=O)NC2CCCCC2)o1,1%,-15%,-3.3%,-6%,7%,1%,-20%,6%
CC1=C(C(=O)NCc2ccccc2)C(c2cccs2)NC(=S)N1 (stereo not given),5%,-13%,/,-14%,-23%[46.1 µM],0%,8%,/
COc1ccc(/C=C(/NC(=O)c2ccccc2)C(=O)N2CCCCC2)cc1,-1%,/,/,-15%,/,3%,12%,/
Cc1cccc(Cc2cccc(C)c2O)c1O,/,/,/,-4%,?,/,7%,/
Cc1cc(=O)[nH]c(SCC(=O)N2C(C)CCCC2C)n1 (stereo not given),2%,5%[46.1 µM],/,-22%,?,-2%,2%,/
CCCC(C)NC(=O)CSc1nc2ccc(C)cc2[nH]1 (stereo not given),/,-6%,/,-2%,-2%,0%,2%,/
Cc1ccc(S(=O)(=O)NC2(C(F)(F)F)C(=O)Nc3c2c(=O)n(C)c(=O)n3C)cc1 (stereo not given),2%,-4%,-0.8%,15%,-7%,3%,-5%,-1%
CC1(CC(=O)N/N=C/c2ccc(-c3cccc(C(F)(F)F)c3)o2)OCCO1,-1%,?,-13%,?,?,-17%,22%,15%
CCCc1cc(=O)[nH]c2nnc(SCC(=O)Nc3ccc(C(C)=O)cc3)n12,/,9%,/,-12%,5%,9%,2%,/
COCCn1nnnc1C(c1ccccn1)N1CCN(c2cc(Cl)ccc2C)CC1 (stereo not given),2%,-15%,-1.7%,-10%,?,-1%,-8%,?
CC(Oc1ccccc1)C(=O)N=C1SC2CS(=O)(=O)CC2N1c1cccc(F)c1 (stereo not given),5%,/,/,-9%,/,-2%,3%,/
COc1ccc(CC(=O)Nc2nnc(C(C)C)s2)cc1,-2%,20%,/,23%,12%[46.1 µM],0%,-4%,/
COc1ccccc1S(=O)(=O)N1CCN(S(=O)(=O)c2ccccc2C#N)CC1,4%,5%,/,5%,5%,0%,-12%,/
COc1ccc(C2=NN(CN3C(=O)C(=O)c4ccccc43)C(c3ccc(Br)cc3)C2)cc1 (stereo not given),10%,-24%,3.5%,/,?,3%,-2%,?
C=C(C)CSc1cc(C)c(C#N)c2nc3ccccc3n12,-4%,?,-17%,?,?,-42%,-3%,4%
CSc1ccc(S(=O)(=O)N(CC(=O)NCc2ccccn2)c2ccc(C)cc2)cc1,-7%,11%,/,6%,?,-3%,24%,/
COc1ccccc1C(=O)Nc1ccccc1C(=O)N1CCCC1,0%,1%,0.1%,0%,19%,0%,-8%,1%
COc1cc(OC)cc(C(=O)Nc2ccccc2S(=O)(=O)N2CCCC2OC(C)=O)c1 (stereo not given),1%,2%[46.1 µM],/,4%,3%[46.1 µM],1%,8%,/
